HSV augment: enhancers of HSV replication in host cells, fold increase, host cell viability | HSV replication augmentation in cells | maximum fold increase | AID 1956, 2009 | 220,000 tested, 0.005% active;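 active = peak rise of 1.5-fold or more in the series; tested in PC3 cells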;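 also: first round at 10 µM; read as green reporter fluorescence; hits show the peak of a series up to 25 µM; 1 = signal of infected wells without compound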
INS promoter inh: inhibitors of insulin promoter-driven GFP, primary screen, imaging, TRM-6 cells (human fetal islet line), eGFP reporter, cell count; reporter expression induced with tamoxifen; inhibition, % at 2 µM; 130,000 tested, 0.9% active; AID 1273, 2008;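 active = inhibition above the mean plus 3 SD, with well images judged a real hit on visual review, cut at about 60% in these data, passing the limit was not always enough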
RGS16-Gao HTS: modulators of RGS16 binding to Galphao, primary screen, biochemical, human proteins, multiplexed bead flow cytometry; AID 1441, 2008; bead-based flow cytometry RGS16-Galphao binding, fluorescence; actives lie on both sides; binding response (% of control), % at 10 µM; Regulator of G-protein signaling 16 (Homo sapiens) + Guanine nucleotide-binding protein …; 220,000 tested, 0.38% active;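 active = below 25% or above 175%, edge rows of some plates excepted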;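 also: Galphao activated by GDP with aluminum fluoride before binding; 100% = wells without compound and 0% = beads without RGS; some results beyond the cut were filed as inactive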
Target sequence (O15492 whole entry, looked up): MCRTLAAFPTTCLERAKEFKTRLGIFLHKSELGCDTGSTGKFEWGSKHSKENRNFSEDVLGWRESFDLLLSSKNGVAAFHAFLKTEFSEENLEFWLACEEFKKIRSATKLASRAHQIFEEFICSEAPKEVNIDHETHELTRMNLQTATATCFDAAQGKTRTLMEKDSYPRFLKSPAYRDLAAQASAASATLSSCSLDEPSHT
Target sequence (P09471 whole entry, looked up): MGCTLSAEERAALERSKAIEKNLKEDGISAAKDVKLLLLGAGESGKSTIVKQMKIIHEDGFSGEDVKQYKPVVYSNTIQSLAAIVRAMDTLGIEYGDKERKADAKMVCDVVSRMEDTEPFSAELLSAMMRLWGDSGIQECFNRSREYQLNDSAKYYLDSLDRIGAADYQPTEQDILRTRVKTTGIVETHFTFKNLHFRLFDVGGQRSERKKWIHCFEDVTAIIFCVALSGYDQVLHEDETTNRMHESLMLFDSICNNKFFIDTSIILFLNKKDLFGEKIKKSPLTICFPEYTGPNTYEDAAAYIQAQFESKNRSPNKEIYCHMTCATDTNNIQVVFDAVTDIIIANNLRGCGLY
GALR2 ag: GALR2 receptor agonists, primary screen, cell-based; GALR2-expressing cells, agonist activation read-out; activation, %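 (tested at 5 µM)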; 140,000 tested, 0.48% active; AID 803, 2007;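 active = above mean plus 3 SD of all compounds, about 5% in these data, not always enough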;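 also: 0% = vehicle buffer wells and 100% = reference agonist at full effect; tested in CHO reporter cells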
Target sequence (O43603 whole entry, looked up): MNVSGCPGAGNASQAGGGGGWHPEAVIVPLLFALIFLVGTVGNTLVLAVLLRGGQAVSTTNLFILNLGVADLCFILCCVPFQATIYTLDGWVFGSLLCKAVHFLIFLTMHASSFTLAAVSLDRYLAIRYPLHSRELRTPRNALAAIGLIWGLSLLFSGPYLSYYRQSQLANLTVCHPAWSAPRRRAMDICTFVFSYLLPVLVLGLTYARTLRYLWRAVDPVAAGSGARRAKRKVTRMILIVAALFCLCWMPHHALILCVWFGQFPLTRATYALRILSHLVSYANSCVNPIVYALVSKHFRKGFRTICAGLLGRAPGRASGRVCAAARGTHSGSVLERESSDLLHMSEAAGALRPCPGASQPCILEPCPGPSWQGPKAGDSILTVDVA
PKD1 inh: inhibitors of human PKD1 kinase, biochemical, fluorescence polarization; PKD1 kinase fluorescence polarization assay; inhibition, %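 (about 10 µM by stock and volumes)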; 200,000 tested, 0.056% active; AID 797, 2007;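 active = inhibition of 50% or more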;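 also: controls were vehicle for no effect and a reference inhibitor for full effect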
INS promoter inh cell count: further read-out of INS promoter inh, marked with its call; normalized cell count, %; measured here: cell count, toxicity; reference of the scale not given here;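 cells exposed to compound for 48 h; stained nuclei by imaging scaled within each plate; lower means fewer cells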
HSV augment primary fold: recorded beside HSV augment, whose call it bears; fold increase; compound at 10 µM; measured here: primary screen fold increase 10 uM; tested in PC3 cells;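 GFP signal in the first replicate; 1 = infected wells without compound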
* hit, by the source's call; i = inactive; . = no result given.

SMILES | HSV augment | HSV augment primary fold | INS promoter inh | INS promoter inh cell count | RGS16-Gao HTS | GALR2 ag | PKD1 inh
CC(=O)c1ccc(NC(=S)N2CCCC(CO)C2)cc1 (configuration not stated) | i | 0.93 | . | . | 101 | -0.9 | 10
Cc1ccc(-n2c(SCC(=O)OC(C)C)nnc2-c2ccncc2)cc1 | i | 0.99 | 10 | 73 | 106 | -2.8 | -7
CC1=C(C(=O)Nc2ccccc2)C(c2ccco2)NC(=S)N1 (configuration not stated) | i | 0.79 | -54 | 101 | 108 | -0.6 | -7
Cc1ccc(C2(C)NC(=O)N(CC(=O)Nc3ccc4c(c3)OCO4)C2=O)cc1 (configuration not stated) | i | 0.96 | 16 | 104 | 109 | -0.3 | -6
CCC(=O)NNc1ccc(Br)cc1 | i | 0.96 | . | . | 104 | . | 2
Cc1cccc(-c2nc3c(c(SCC(=O)N(C)C)n2)CCCC3)c1 | i | 0.99 | 8 | 113 | 106 | -0.8 | -4
COc1cccc(CN(C)CC(=O)Nc2ccccc2C(C)C)c1 | i | 1.1 | . | . | 103 | . | -3
O=C(O)CCc1nc2ccccc2n(CCc2ccccc2)c1=O | i | 0.99 | -15 | 95 | 100 | -0.6 | -2
CC(=O)Nc1ccc(S(=O)(=O)Nc2nnc(C(C)C)s2)cc1 | i | 0.97 | 38 | 141 | 97 | -3.2 | -2
CCCc1c(C)nn(C(=O)/C(C#N)=N/Nc2ccccc2[N+](=O)[O-])c1C | i | 0.92 | . | . | 105 | . | 3
CCC(C)(C)n1nnnc1C(c1ccc(C)cc1)N1CCN(Cc2cccnc2)CC1 (configuration not stated) | i | 1 | . | . | 88 | -1.6 | -2
S=c1[nH]nc(-c2ccccc2)o1 | i | 0.87 | -21 | 135 | 87 | -1.2 | -7
O=C(N/N=C/c1coc2ccccc2c1=O)c1cccc([N+](=O)[O-])c1 | i | 0.61 | . | . | 107 | . | -1
CCC(C)(C(=O)NC1CCCCC1)N(C(=O)c1ccccn1)c1ccccc1 (configuration not stated) | i | 1 | -21 | 70 | 102 | -1.5 | -3
Cc1cccc(-c2nnc(NC(=O)c3ccc(N4C(=O)CCC4=O)cc3)s2)c1 | i | 0.9 | 20 | 73 | 95 | -0.2 | -4
CCOC(=O)C1=C(C)OC(N)=C(C#N)C1c1ccsc1 (configuration not stated) | i | 0.88 | . | . | 101 | 0.7 | 1
CSc1nc2c(c(=O)[nH]1)C(c1ccccc1Cl)CC(=O)N2 (configuration not stated) | i | 0.87 | 36 | 94 | 120 | . | 2
COCc1cc(=O)[nH]c(-c2ccc(C(F)(F)F)cc2)n1 | i | 1.3 | . | . | 98 | . | .
COCCNc1nc2sc3c(c2c(=O)n1Cc1ccco1)CCCCC3 | i | 0.87 | -19 | 77 | 91 | -0.9 | 0
N#C/C(=C\c1cccs1)C(=O)Nc1nccs1 | i | 0.99 | . | . | 105 | . | 4
COc1ccccc1-n1cc(-c2ccc(Cl)cc2)[nH]c1=O | i | 0.99 | 35 | 118 | 98 | -0.4 | -16
COc1ccccc1CNC(=O)COC(=O)c1cccnc1SCC(=O)NCc1ccccc1OC | i | 1 | . | . | 103 | . | 5
CCOc1ccc(NC(=O)C2CC(=O)N=C(N)S2)cc1 (configuration not stated) | i | 0.92 | 13 | 199 | 106 | -2.0 | -9
Cc1cc(C)c(C#N)c(SCC(=O)NN2CC(=O)N(c3ccccc3F)CC2=O)n1 | i | 0.94 | 40 | 124 | 99 | -1.2 | -4
Cc1ccc(C2(c3noc(CN(C)Cc4cnn(C)c4)n3)CCCC2)cc1 | i | 1.7 | . | . | 103 | . | 0
(continued)
SMILES | HSV augment | HSV augment primary fold | INS promoter inh | INS promoter inh cell count | RGS16-Gao HTS | GALR2 ag | PKD1 inh
CCCC(C)NC(=O)c1ccc(F)cc1 (configuration not stated) | i | 0.99 | -21 | 120 | 115 | 1.5 | -1
CCCc1cc(=O)oc2cc3occ(C)c3cc12 | i | 0.84 | . | . | 104 | -1.8 | 0
COc1ccc(-n2ccnc2SCC(=O)NCc2ccco2)c(OC)c1 | i | 1 | . | . | 8 | . | 1
Cc1ccc(SC2CC(=O)N(c3ccc4c(c3)OCCO4)C2=O)cc1 (configuration not stated) | i | 1 | 55 | 90 | 104 | . | -1
Cc1ccc(S(=O)(=O)Nc2cnc3ccccc3c2)cc1 | i | 0.93 | 50 | 112 | 83 | . | 4
COc1cc(NC(=S)NC(=O)C(C)C)ccc1NC(=O)c1cc2ccccc2o1 | i | 0.84 | . | . | 99 | . | -7
CC(=O)N1CCN(c2ccc([N+](=O)[O-])c(-n3nc(C)cc3C)c2)CC1 | i | 1.1 | 33 | 86 | 10 | -1.8 | 1
Cc1nc(-c2cccc(NS(C)(=O)=O)c2)cs1 | i | 1 | . | . | 104 | -0.5 | -1
COc1ccc(CN(CC(=O)NC2CCCCC2)C(=O)CCCC(=O)Nc2ccccn2)cc1 | i | 0.95 | . | . | 107 | . | 2
O=C(CCSc1ccc(Cl)cc1)NC1CCCCC1 | . | . | 13 | 107 | 102 | -1.6 | -13
O=C(O)c1ccccc1C(=O)N1CC=C(c2ccccc2)CC1 | i | 0.95 | . | . | 102 | -2.1 | -3
O=C1c2ccccc2C(Nc2ccc(Cl)cn2)N1c1cccnc1 (configuration not stated) | i | 1 | . | . | 111 | -1.6 | -6
COc1ccccc1NC(=O)c1ccccc1NS(C)(=O)=O | i | 0.91 | 17 | 125 | 99 | -1.7 | -3
CC(C)C(NC(=O)C1CCCCC1)C(=O)N1CCN(c2ccc(F)cc2)CC1 (configuration not stated) | i | 1.2 | -107 | 67 | 120 | 0.0 | 2
CCN1CCN(C(=O)c2ccccc2N(Cc2ccccc2)S(C)(=O)=O)CC1 | i | 0.85 | . | . | 102 | -0.7 | -4
O=C(O)CCC/C=C\C[C@@H]1[C@@H](/C=C/[C@@H](O)COc2cccc(Cl)c2)[C@H](O)C[C@@H]1O | i | 0.77 | -62 | 118 | 102 | 0.9 | -9
COc1ccccc1NC(=O)Cn1nc(C(F)(F)F)c2c1CCCC2 | i | 0.94 | . | . | 98 | -3.4 | 0
COC(=O)Nc1sc2c(c1C(N)=O)CCCCCC2 | i | 1 | 46 | 83 | 86 | -3.2 | 6
CCOc1ccc(N2C(=O)CC(NCCNc3ccc(C(=O)c4cccs4)cc3)C2=O)cc1 (configuration not stated) | i | 0.97 | . | . | 114 | . | 2
C/C(O)=C(\C#N)P(=O)(c1ccccc1)c1ccccc1 | i | 1 | . | . | 96 | . | .
Cc1ccc(C(=O)NCCc2cccc(Cl)c2)cc1[N+](=O)[O-] | i | 1 | -109 | 166 | 90 | -1.7 | 5
OCCn1c(C(F)(F)F)nc2ccccc21 | i | 1.1 | 19 | 104 | 97 | -1.9 | -4
Cc1ccc(S(=O)(=O)Cc2ccc(C(=O)OCc3ccccc3)cc2)cc1 | i | 0.94 | -3 | 99 | 101 | -0.9 | -1
Cc1cnc2cc(Cl)ccc2c1SCC(=O)O | i | 0.91 | . | . | 99 | . | .
COn1c(SCc2ccc(C)cc2C)nc2ccccc2c1=O | i | 0.8 | 11 | 121 | 104 | -1.9 | -2

Taken from above.
Result of Cc1cnc2cc(Cl)ccc2c1SCC(=O)O under RGS16-Gao HTS: 99
Result of Cc1ccc(S(=O)(=O)Cc2ccc(C(=O)OCc3ccccc3)cc2)cc1 under INS promoter inh: -3

Carrying on.
SMILES | HSV augment | HSV augment primary fold | INS promoter inh | INS promoter inh cell count | RGS16-Gao HTS | GALR2 ag | PKD1 inh
Cc1ccccc1NS(=O)(=O)c1ccc2[nH]c(=O)[nH]c2c1 | i | 0.99 | 6 | 160 | 104 | . | 2
O=C(CSc1nnc(-c2cccs2)n1CC1CCCO1)N1CCCC1 (configuration not stated) | i | 0.92 | . | . | 74 | . | 0
CCC(C)c1ccc(NC(=O)CC(C)=O)cc1 (configuration not stated) | i | 0.81 | -21 | 237 | 99 | -2.2 | 3
O=C(COC(=O)C1CCCCC1)Nc1cc([N+](=O)[O-])ccc1F | i | 1 | . | . | 101 | . | -5
Cc1cc(C)c(C#N)c(OCC(=O)c2ccc(Br)cc2)n1 | i | 0.94 | 62 | 79 | 105 | -1.1 | -3
CC(=O)Nc1ccc(S(=O)(=O)NC2(C(F)(F)F)C(=O)Nc3c2c(=O)n(C)c(=O)n3C)cc1 (configuration not stated) | i | 1.1 | 11 | 110 | 102 | -0.6 | -4
CCn1c(CNc2cccc(C(F)(F)F)c2)n[nH]c1=S | i | 0.95 | -20 | 100 | 110 | . | -4
O=C(CCN1CCN(c2ccccc2F)CC1)c1ccc(Br)cc1 | i | 0.61 | . | . | 97 | -2.1 | 4
CC(C)(C)c1ccc(NC(=O)N2CCN(c3ccc([N+](=O)[O-])cn3)CC2)cc1 | i | 0.92 | . | . | 97 | . | .
COCCCN=Cc1c(-c2ccccc2)[nH]n(-c2nc3ccccc3s2)c1=O | i | 1.1 | . | . | 98 | . | .
CC1C(=O)NN=C1C(=O)N/N=C/c1cccs1 (configuration not stated) | i | 0.92 | -73 | 45 | 112 | . | -4
Cc1ccccc1CSc1nc2c(c(=O)[nH]1)CCCC2 | . | . | -4 | 122 | 97 | -0.5 | -2
COC(Cn1c2c(c3cc(C)ccc31)CCCC2NCc1ccccc1)OC (configuration not stated) | i | 0.99 | . | . | 104 | . | .
CCCOc1ccc(C(=O)CCNc2ccc(C)c(Cl)c2)cc1 | i | 0.8 | 50 | 90 | 92 | 2.8 | 5
COC(=O)C1=C(C)N(c2cc(C)cc(C)c2)/C(=C/c2ccco2)C1=O | i | 0.87 | -10 | 100 | 110 | . | -10
O=S(=O)(N/N=C\C=C\c1ccccc1)c1ccc(Cl)cc1 | i | 0.99 | -67 | 118 | 102 | -2.3 | -13
O=C(Cn1cc(C(F)(F)F)ccc1=O)N/N=C/c1ccc(Cl)cc1Cl | i | 0.97 | 45 | 99 | 101 | 0.4 | 2
COc1ccc(Cl)cc1NC(=O)CN(C)CC(=O)Nc1ccccc1N1CCOCC1 | i | 0.75 | . | . | 105 | . | 2
OC1(c2ccc(Br)cc2)CN(c2ccccc2)C2=[N+]1CCS2 (configuration not stated) | i | 0.92 | . | . | 102 | . | -1
O=C(NCC1COc2ccccc2O1)C1CCCN(S(=O)(=O)c2cccc3cccnc23)C1 (configuration not stated) | i | 1.1 | . | . | 106 | -2.5 | 1
O=C1C(Cl)=C(NC2CCCCC2)C(=O)N1Cc1ccccc1 | i | 0.88 | 56 | 129 | 110 | . | -7
Cn1c(C(=O)N2CCCc3ccccc32)cc2c(=O)n3ccccc3nc21 | . | . | -64 | 125 | 101 | -1.6 | -5
CCCn1nnc(NC(=S)NC(=O)CC)n1 | i | 0.89 | -6 | 138 | 98 | -3.1 | -6

At a glance, 14 of the compounds above:
SMILES | HSV augment | HSV augment primary fold | INS promoter inh | INS promoter inh cell count | RGS16-Gao HTS | GALR2 ag | PKD1 inh
COCCCN=Cc1c(-c2ccccc2)[nH]n(-c2nc3ccccc3s2)c1=O | i | 1.1 | . | . | 98 | . | .
CC1C(=O)NN=C1C(=O)N/N=C/c1cccs1 (configuration not stated) | i | 0.92 | -73 | 45 | 112 | . | -4
Cc1ccccc1CSc1nc2c(c(=O)[nH]1)CCCC2 | . | . | -4 | 122 | 97 | -0.5 | -2
COC(Cn1c2c(c3cc(C)ccc31)CCCC2NCc1ccccc1)OC (configuration not stated) | i | 0.99 | . | . | 104 | . | .
CCCOc1ccc(C(=O)CCNc2ccc(C)c(Cl)c2)cc1 | i | 0.8 | 50 | 90 | 92 | 2.8 | 5
COC(=O)C1=C(C)N(c2cc(C)cc(C)c2)/C(=C/c2ccco2)C1=O | i | 0.87 | -10 | 100 | 110 | . | -10
O=S(=O)(N/N=C\C=C\c1ccccc1)c1ccc(Cl)cc1 | i | 0.99 | -67 | 118 | 102 | -2.3 | -13
O=C(Cn1cc(C(F)(F)F)ccc1=O)N/N=C/c1ccc(Cl)cc1Cl | i | 0.97 | 45 | 99 | 101 | 0.4 | 2
COc1ccc(Cl)cc1NC(=O)CN(C)CC(=O)Nc1ccccc1N1CCOCC1 | i | 0.75 | . | . | 105 | . | 2
OC1(c2ccc(Br)cc2)CN(c2ccccc2)C2=[N+]1CCS2 (configuration not stated) | i | 0.92 | . | . | 102 | . | -1
O=C(NCC1COc2ccccc2O1)C1CCCN(S(=O)(=O)c2cccc3cccnc23)C1 (configuration not stated) | i | 1.1 | . | . | 106 | -2.5 | 1
O=C1C(Cl)=C(NC2CCCCC2)C(=O)N1Cc1ccccc1 | i | 0.88 | 56 | 129 | 110 | . | -7
Cn1c(C(=O)N2CCCc3ccccc32)cc2c(=O)n3ccccc3nc21 | . | . | -64 | 125 | 101 | -1.6 | -5
CCCn1nnc(NC(=S)NC(=O)CC)n1 | i | 0.89 | -6 | 138 | 98 | -3.1 | -6

Rows were taken by chance; 1.3% or so of the library scored in one or more.
